# Screening results (PubChem BioAssay)
# B2AR ag: beta2AR agonists driving receptor internalization, primary screen, cell-based, FAP fluorogen, flow cytometry. Am2.2-beta2AR cells; reference of the scale not given here. response, % (concentration not given with the values). 0.43% of 340,000 active;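 active means response above a set limit, near 3 SD of response in nonfluorescent compounds, cut at about 42% in these data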;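 further: stock transfer was 100 nL into about 11 µL; a reference agonist was the positive control; negative values mostly stem from fluorescent compounds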
# Target sequence (P07550 whole entry, looked up): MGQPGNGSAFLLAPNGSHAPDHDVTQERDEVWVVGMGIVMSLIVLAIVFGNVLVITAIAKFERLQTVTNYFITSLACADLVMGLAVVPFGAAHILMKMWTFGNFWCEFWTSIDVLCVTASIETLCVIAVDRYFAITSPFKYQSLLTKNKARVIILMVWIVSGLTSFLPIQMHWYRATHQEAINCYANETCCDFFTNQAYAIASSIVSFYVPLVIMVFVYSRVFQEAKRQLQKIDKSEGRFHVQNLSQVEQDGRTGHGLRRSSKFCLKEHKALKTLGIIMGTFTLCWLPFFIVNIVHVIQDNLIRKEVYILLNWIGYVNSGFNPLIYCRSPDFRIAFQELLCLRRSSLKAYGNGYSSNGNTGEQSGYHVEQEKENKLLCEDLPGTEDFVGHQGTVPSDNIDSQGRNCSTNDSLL
# HNF4A DNA FP: change in binding of human HNF4A to DNA, primary screen, biochemical, fluorescence polarization, FITC-DNA; Hepatocyte nuclear factor 4-alpha (Homo sapiens), P41235; AID 1224865, 2016; 1 h; activity change, % at 10 µM; 0.3% of 360,000 active; in the data active means activity change above about 30%, passing the limit was not always enough;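 further: controls were the assay level and a saturating level of protein; the project sought stronger binding though the title names inhibitors; some compounds called inactive have numbers as strong as hits; positive values seem to mean higher polarization but the record does not say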
# Target sequence (P41235 whole entry, looked up): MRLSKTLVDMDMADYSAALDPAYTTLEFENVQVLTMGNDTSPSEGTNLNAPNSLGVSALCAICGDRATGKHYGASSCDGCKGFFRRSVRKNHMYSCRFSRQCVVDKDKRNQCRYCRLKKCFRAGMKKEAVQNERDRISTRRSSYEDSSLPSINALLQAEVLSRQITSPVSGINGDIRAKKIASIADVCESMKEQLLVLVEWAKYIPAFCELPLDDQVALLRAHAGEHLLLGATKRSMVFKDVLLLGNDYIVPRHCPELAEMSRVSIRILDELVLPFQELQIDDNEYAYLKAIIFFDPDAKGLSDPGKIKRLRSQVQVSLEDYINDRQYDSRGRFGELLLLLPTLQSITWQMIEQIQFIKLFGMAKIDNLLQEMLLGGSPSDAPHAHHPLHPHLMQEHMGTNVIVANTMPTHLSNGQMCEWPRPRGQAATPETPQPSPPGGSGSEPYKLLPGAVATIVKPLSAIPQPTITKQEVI
# Ecoli growth: E. coli growth inhibition, primary screen, OD600 | Escherichia coli growth, 23 h; hits give low values | OD600 absorbance (concentration not given with the values) | 0.21% of 330,000 active | AID 1053175, 2014;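 active means OD600 absorbance below the run mean of sample wells minus 3.6 SD, in any replicate, cut at about 0.56 in these data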;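 further: stock transfer was 300 nL into about 60 µL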
# UCH37 inh: inhibitors of human UCH37 deubiquitinase, primary screen, biochemical, Ub-AMC cleavage, fluorescence. purified proteasome/UCH37. Ubiquitin carboxyl-terminal hydrolase isozyme L5 (Homo sapiens), Q9Y5K5. AID 588478, 2011. inhibition, % (test concentration not listed). 0.33% of 330,000 active;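 active means mean of two replicates above 20%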;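 further: 0% = compound-free wells with enzyme and 100% = wells lacking proteasome; stock transfer was 100 nL into about 20 µL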
#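 Signal – fluorescence, ex 355 nm, em 460 nm · System – Proteasome-bound UCH37 · Input – 0.15 nM proteasome as dispensed · Timing – 30 min preincubation with enzyme, 25 min cleavage at room temperature · Read-out basis – percent inhibition of cleavage signal versus uninhibited and no-proteasome wells · Medium – Tris-HCl pH 7.4 with ATP-MgCl2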
# LANA-H2A inh: blockers of LANA interaction with H2A/H2B – biochemical, FP readout, HTS, primary screen. Protein LANA1 (Human herpesvirus 8 type P (isolate GK18)), Q9QR71. 0.6% of 320,000 active. cell-free LANA-H2A/H2B peptide, fluorescence polarization. inhibition, % (concentration not given with the values); in the data active means inhibition mostly above about 10%, no sharp cut-off; inactive means mostly below about 6.7%;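 further: stock transfer was 7.5 nL into about 10 µL; 0% = median of vehicle wells and 100% = median of positive control wells; one replicate is shown; the record names a cut of 25% in any replicate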
# A1 inh: caspase 3/7 activation in MEF A1-2A-BIM cells, primary screen, A1 inhibitor project, cell-based, luminescence, HTS; caspase activation, % (concentration not given with the values); Caspase-Glo 3/7 luminescence, 3 h; percent of clofoctol response, vehicle zero; 0.066% of 330,000 active;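 active means over half of replicate activation scores above 10%, or exactly half above 10 with the replicate mean above 10; inconclusive means replicate mean below 10 yet half the replicates above 10; inactive means over half of replicates below 10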;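 further: wells of about 30 µL received 50 nL stock; many hits fall short of the cut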
# Vif TR-FRET: inhibitors of Vif binding to APOBEC3G peptide, primary screen, biochemical, TR-FRET, GST-Vif 1-94, biotin-A3G peptide, dose response retest (AID 1117319); TR-FRET GST-Vif / biotin-A3G peptide binding; higher % means a stronger effect; test concentration not given here; strong numbers were not always called active; 0.57% of 260,000 active; inhibition, %, or IC50 in µM where a hit was titrated;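 active means above the screen mean plus three standard deviations and confirmed in dose response; inconclusive means results disagree or hit not tested in dose response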;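 further: Vif residues 1-94 fused to GST binding biotinylated APOBEC3G peptide 110-148; 0% = full assay without inhibitor and 100% = GST in place of GST-Vif; retest series ran down from 100 µM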
# The depositor's hits bear a star; u = inconclusive; x = no result given; & = joins results of further samples.
SMILES,B2AR ag,HNF4A DNA FP,Ecoli growth,UCH37 inh,LANA-H2A inh,A1 inh,Vif TR-FRET
Cc1nc(Cc2nnc(SCC(=O)N3CCN(c4ccccc4)CC3)o2)cs1,-3,3.2,0.66,-0.9,x,x,2%
C=CCn1c(N)cc(=O)nc1SCC(=O)Nc1ccc(C)cc1,3,-2.2,0.66,1.0,-3.1,0.6,-12%
Cc1ccc(N2C(=O)c3ccccc3C2(O)c2ncc[nH]2)cc1 (stereo not drawn),3,-0.6,0.7,-0.7,-4.2,-0.2,-12%
Cn1c(C(=O)c2ccncc2)cc2ccccc21,-30,-3.5,0.65,9.1,2.7,0.0,-1%
COc1ccccc1-n1c(N)c(C(N)=O)sc1=S,6,0.5,0.67,10,-1.7,-0.2,12%
Cc1ccc(Nc2nnns2)cc1C,10,-0.6,0.66,3.7,-1.7,0.6,-3%
O=C(C1=C(O)C(=O)N(CCCN2CCOCC2)C1c1ccncc1)c1cc2ccccc2o1 (stereo not drawn),x,x,0.64,5.3,x,x,u
Cc1ccc(C2(C)NC(=O)N(CC(=O)NC(C)c3ccccc3)C2=O)cc1 (stereo not drawn),-4,2.7,0.65,1.1,-20,0.3,1%
C[C@H]1CCC(=O)N(CCSc2ccc(Br)cc2)CC1,-4,3.5,x,-0.7,-2.5,-2.0,x
COc1cccc(/C=C/C(=O)OCC(=O)Nc2nnc(-c3ccccc3)o2)c1,1,-1.9,0.63,-9.7,-0.1,-1.1,0%
CCN1C(=O)C(CC(=O)Nc2ccc(OC)cc2)N(CCc2ccc(OC)cc2)C1=S (stereo not drawn),-1,0.5,0.65,1.3,-3.0,1.0,6%
COc1cc(OC)c(OC)cc1/C=N/NC(=O)CC1C(=O)NN=C1C (stereo not drawn),-3,0.1,x,x,3.5,1.0,31%
COc1cc(C2N(c3cc(C)on3)C(=O)C3CCCN32)cc(OC)c1OC (stereo not drawn),4,-3.3,0.71,1.9,0.1,0.3,23%
O=C(NC(=S)Nc1ccc(Cl)cn1)C(c1ccccc1)c1ccccc1,-1,1.4,0.78,7.2,-6.8,0.4,7%
O=C(NCc1cccc(Cl)c1)C1CCCO1 (stereo not drawn),3,-2.4,0.71,0.5,7.0,0.4,1%
CCCc1c(C(=O)Nc2cc(C)on2)cnn1-c1ccccc1,-21,1.0,0.66,2.6,-0.2,-0.7,4%
COc1cc(C2C(C#N)=C(N)N(N(C)C)C3=C2C(=O)CC(C)(C)C3)ccc1O (stereo not drawn),12,0.1,0.67,6.4,-0.4,0.9,-8%
CCN(CC)CCCNC(=O)c1nn(-c2ccc(OC)cc2OC)c(=O)c2ccccc12,5,20,0.75,3.0,-0.2,1.0,16%
OCC1CCCCN1C(=S)NCc1ccco1 (stereo not drawn),-3,2.0,0.68,0.5,-5.2,0.0,-6%
CC(C)OC(=O)CSc1nnc(-c2cccnc2)n1Cc1ccccc1,3,-1.9,0.72,5.4,-1.0,0.3,10%

# Four entries from above in a different format:
molecule	B2AR ag	HNF4A DNA FP	Ecoli growth	UCH37 inh	LANA-H2A inh	A1 inh	Vif TR-FRET
O=C(NC(=S)Nc1ccc(Cl)cn1)C(c1ccccc1)c1ccccc1	-1	1.4	0.78	7.2	-6.8	0.4	7%
O=C(NCc1cccc(Cl)c1)C1CCCO1 (stereo not drawn)	3	-2.4	0.71	0.5	7.0	0.4	1%
CCCc1c(C(=O)Nc2cc(C)on2)cnn1-c1ccccc1	-21	1.0	0.66	2.6	-0.2	-0.7	4%
COc1cc(C2C(C#N)=C(N)N(N(C)C)C3=C2C(=O)CC(C)(C)C3)ccc1O (stereo not drawn)	12	0.1	0.67	6.4	-0.4	0.9	-8%

# Later entries.
SMILES,B2AR ag,HNF4A DNA FP,Ecoli growth,UCH37 inh,LANA-H2A inh,A1 inh,Vif TR-FRET
COc1cc(OC)cc(-c2c(-c3cccs3)c3cc(-c4ccc5c(c4)OCCO5)ccc3n2C)c1,-5,18,0.75,-25,-1.3,0.6,x
CNC(=O)C12CC3CC(C1)CC(c1ccc(C)cc1)(C3)C2,-4,0.6,0.63,1.2,-1.7,-0.1,x
O=C(c1ccccc1C(=O)N(c1ccccc1)c1ccccc1)N1CCCCC1,2,-0.7,0.69,4.8,-0.3,0.2,x
COc1ccc(-c2cn3ccc(C)cc3n2)cc1,-4,-2.3,0.65,-51,-2.9,-12,28%
O=C(CN1CCN(S(=O)(=O)c2cc(Cl)ccc2Cl)CC1)Nc1ccc2c(c1)OCCO2,-11,2.6,0.79,4.3,-7.2,0.9,-1%&2%
Cc1ccc(NC(=S)N(CCCN2CCCC2)Cc2cccn2Cc2ccc(Cl)cc2)cc1Cl,22,-0.9,0.71,1.5,-3.5,3.5,x
c1cncc(-c2noc(-c3ccc4ccccc4c3)n2)c1,-3,-2.4,0.7,-15,1.7,-12,x
COC(=O)CN1C(C)=Nc2ccc(C)cc2C1c1ccccc1 (stereo not drawn),-2,0.8,0.67,-3.2,-3.0,1.2,x
N#C/C(=C\c1ccc(N2CCCCC2)o1)C(N)=O,10,168,0.73,30*,-34,-0.2,16%
O=C(CN1CCN(Cc2cccc3ccccc23)CC1)NCCc1ccccc1,7,-1.3,0.68,1.0,-3.5,0.2,x
O=S(=O)(NCCSc1ccccn1)c1ccc(Cl)cc1,-3,-0.6,x,1.5,-7.0,0.1,-3%
O=C(Nc1ccncc1)C1CCN(S(=O)(=O)c2ccccc2)CC1,2,-0.9,0.71,0.9,-4.5,0.0,-2%
COc1ccc(Cl)cc1C(=O)NCC(c1ccco1)N1CCCC1 (stereo not drawn),-6,1.8,0.71,3.2,-6.7,0.4,0%
O=C(NCc1ccccc1)c1ccc(Cl)cc1[N+](=O)[O-],5,-1.9,0.67,4.2,6.7,-0.2,-8%
CC1(C)CC(=O)C(C(=O)c2ccccc2)C(=O)C1Cl (stereo not drawn),-8,-4.9,0.67,3.3,-1.6,-0.5,-5%
COC(=O)c1ccccc1NC(=O)CSc1nccn1C,4,-0.6,0.68,4.7,9.2,-0.1,-1%
CSCC[C@@H](C(=O)O)N1Cc2ccccc2C1=O,-2,4.5,0.73,4.7,-3.5,-0.3,-4%
CCc1nc2ccc(C(=O)NCc3ccccc3)cc2nc1CC,2,2.0,0.64,-0.1,-0.7,-0.5,14%
O=C(O)CCCCCN1C(=O)C(O)=C(C(=O)/C=C/c2ccccc2)C1c1cccc([N+](=O)[O-])c1 (stereo not drawn),-3,4.5,x,11,-1.3,0.4,21%
O=C(/C=C/c1ccccc1)N1CCC[C@H]1CO,0,-0.5,x,2.3,-4.0,3.0,28%

# Quoted at random: 3 entries already listed, in no set order.
SMILES,B2AR ag,HNF4A DNA FP,Ecoli growth,UCH37 inh,LANA-H2A inh,A1 inh,Vif TR-FRET
O=S(=O)(NCCSc1ccccn1)c1ccc(Cl)cc1,-3,-0.6,x,1.5,-7.0,0.1,-3%
COC(=O)c1ccccc1NC(=O)CSc1nccn1C,4,-0.6,0.68,4.7,9.2,-0.1,-1%
CSCC[C@@H](C(=O)O)N1Cc2ccccc2C1=O,-2,4.5,0.73,4.7,-3.5,-0.3,-4%

# More records.
SMILES,B2AR ag,HNF4A DNA FP,Ecoli growth,UCH37 inh,LANA-H2A inh,A1 inh,Vif TR-FRET
CN=C(Nc1ccc(C(=O)OC)cc1)SC1CC(=O)N(c2ccccc2F)C1=O (stereo not drawn),6,0.1,0.68,3.6,1.2,0.1,1%
O=C(COC(=O)c1ccc([N+](=O)[O-])s1)NC(c1ccccc1)c1ccccc1,4,-1.8,x,-0.4,-3.8,0.3,-6%
Cc1ccc(S(=O)(=O)N2CCN(C(=O)C3CCCO3)CC2)cc1 (stereo not drawn),5,-1.4,0.71,-2.4,-0.8,0.0,x
Cc1csc(N2CCCC2c2nc3cc(Cl)c(N4CCCCC4)cc3n2CCOCCO)n1 (stereo not drawn),-2,-1.0,0.68,2.9,-2.6,-0.4,x
Cc1ccc(OCc2cn3cccnc3n2)cc1,-14,2.6,0.69,1.9,-3.5,0.2,x
O=C1NC(=S)S/C1=C/c1ccc(Oc2cnccn2)cc1,5,0.7,0.73,3.7,0.1,-1.4,11%
Cc1cccc2cc(COC(=O)c3cccc([N+](=O)[O-])c3)c(=O)[nH]c12,x,x,0.71,0.1,-4.6,-0.4,-4%
COc1cccc(NC(=O)C(OC(=O)c2ccc([N+](=O)[O-])o2)c2ccccc2)c1 (stereo not drawn),4,0.3,0.67,3.2,-1.5,0.4,6%
COC(=O)c1cc(N=Nc2c(C)[nH]c3ccccc23)cc(C(=O)OC)c1,-6,-1.0,0.67,3.5,8.4,-0.1,3%
Cc1ccc(S(=O)(=O)Nc2ccccc2C(=O)N2CCOCC2)cc1,1,0.2,0.72,3.4,-1.3,1.1,x
O=C(CSCc1ccccc1Cl)Nc1ccc(C(=O)O)cc1,9,1.7,0.62,1.2,2.9,-3.5,0%
Cc1ccc(NC(=O)CSc2nnc(C3CCCCC3)n2N)cc1F,-8,2.2,0.69,0.2,-1.8,-0.3,>100µM*
CC(=O)c1cc(F)ccc1OCC(=O)N1CCN(c2ccc(F)cc2)CC1,7,-1.2,0.69,0.8,-0.2,-0.2,-7%
Cc1cccc(N(CC(=O)NC2CCCC2)C(=O)CNC(=O)c2ccco2)c1C,-4,0.0,0.66,3.9,3.9,-0.4,x
COc1ccc(/C=c2/sc3n(c2=O)NC2(c4ccccc4)N(C)C(=O)N(C)C2(c2ccccc2)N=3)cc1 (stereo not drawn),2,2.3,x,x,2.0,0.0,0%&8%
COC(=O)c1cc(NC(=O)c2nccnc2C(=O)O)cc(C(=O)OC)c1,1,1.9,0.75,6.0,4.1,-0.8,18%
Cc1ccc(S(=O)(=O)Nc2cccc(-c3cn4ccsc4n3)c2)cc1,-1,-0.1,0.65,1.7,-1.4,0.3,2%
CC(=O)Nc1cccc(NC(=O)CSc2nccn2Cc2ccc(F)cc2)c1,-9,-2.4,0.68,5.6,-2.8,0.1,-2%
c1ccc(CN2CCN(c3nc(-c4ccccn4)nc4ccccc34)CC2)cc1,-4,-3.5,0.71,0.2,-6.6,0.2,9%
CCOC(=O)[C@H]1[C@H]2COc3ccc(Cl)cc3[C@@H]2N2C(=O)CNC(=O)[C@@]12C,-2,-0.4,x,3.9,-4.3,-0.6,x
CCCCN(C)C(=O)Cn1ncc2c3ccccc3n(CCC)c2c1=O,-6,-2.1,0.64,-23,4.2,1.2,x
O=C(Nc1ccccc1N1CCCC1)C1CCN(C(=O)c2ccc(F)cc2)CC1,5,1.5,0.69,-0.7,-1.5,0.0,4%
Cn1nnc2cc(NC(=O)N3CC4(C)CC3CC(C)(C)C4)ccc21 (stereo not drawn),-9,2.1,0.71,-6.4,5.6,1.1,4%
COC(=O)CSc1nc2ccc(NC(=O)CSc3nnnn3Cc3ccccc3)cc2s1,9,2.0,0.72,2.3,1.6,0.0,2%
CN(CCc1ccccc1)C(=O)c1cc(COc2ccc(F)cc2Cl)on1,-9,-4.3,0.65,0.7,x,x,x
CN1CCN(CC(=O)N2c3ccc(S(=O)(=O)NCCNC(=O)OC(C)(C)C)cc3C(=O)Nc3cccnc32)CC1,-6,3.0,0.72,1.1,3.8,-2.2,x
Cc1cccc(NC(=O)c2ccc(NC(=O)CC3SC(N4CCCC4)=NC3=O)cc2)n1 (stereo not drawn),0,0.6,x,x,1.1,-0.5,x
COc1cccc(N2CCN(C(=O)c3cc4c(=O)n(Cc5ccccc5)ccc4nc3C)CC2)c1,4,-3.3,x,x,2.4,-0.5,x
